CapD inh = Bacillus anthracis CapD inhibitors, primary screen, biochemical, fluorescence intensity; purified CapD enzyme, fluorescence intensity read-out; hits give low values; some hits fall short of the stated cut; z-score (test concentration not listed); 140,000 compounds, 0.23% hits;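 active means z-score under -4 in either of two replicates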;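 further: stock transfer was 100 nL into about 40 µL; score is relative to mean and spread of the plate; one replicate is shown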
AID504770 = growth inhibition of E. coli YBA685, primary screen, V. cholerae RctB inhibitors; 130,000 compounds, 0.27% hits; z-score (no concentration beside the values); E. coli YBA685 rctB-dependent plasmid, OD600 growth, 3 h; hits give low values;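 active means z-score under -2 on both plates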;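 further: wells of about 30 µL received 100 nL stock; score is relative to mean and SD of the test wells; the first replicate is given; strong numbers were not always called active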
Starred values were filed as active, the others as inactive; i = inactive; . = not tested or not shown.

cpd | structure | CapD inh | AID504770
1 | CN(C)c1ccc(NC(=O)Nc2ccc(OCc3ccccc3)cc2)cc1 | -0.13 | 0.95
2 | CC(=O)Nc1cccc(NC(=O)c2sc3ncn(CC(=O)Nc4ccc(C)c(Cl)c4)c(=O)c3c2C)c1 | 3.8 | .
3 | CS(=O)(=O)N1CCN(C(=O)c2ccccc2)C1 | -1 | 0.75
4 | CNc1scnc1S(=O)(=O)c1ccc(C)cc1 | 0.19 | .
5 | Cc1csc(SCc2ccccc2C(=O)OCC(N)=O)n1 | . | -0.8
6 | Cc1cc2ncn(CCOc3ccccc3)c2cc1C | 0.23 | -0.2
7 | O=c1n(Cc2ccc(F)cc2)nc2n1-c1ccccc1SC2 | 0.4 | -0.45
8 | Cc1ccc(C(=O)N/C(=C\c2ccco2)C(=O)NC2CCCCC2)cc1 | -0.11 | -0.4
9 | CCN(CC)c1ccc(C=C2C(=O)OC(c3ccccc3)OC2=O)cc1 (centres undefined) | -1.9 | -0.7
10 | CC(Br)C(=O)Nc1ccc2nc(SCC(=O)N3CCc4ccccc43)sc2c1 (centres undefined) | 0.03 | .
11 | Cc1ccccc1CCOC(=O)NNC(=O)c1ccc2c(c1)OCO2 | -0.32 | .
12 | CSc1sc(C(=O)O)c(-c2ccc(Cl)cc2)c1C#N | 0.055 | .
13 | Cc1cccc(C2=Nc3ccccc3N=C(c3ccc(C)cc3O)C2)c1 | -1.1 | .
14 | CN(C)CCN1C(=O)C(=O)/C(=C(/O)c2ccccc2)C1c1ccco1 (centres undefined) | -0.55 | -0.7
15 | O=C(CCN1CCOCC1)Nc1c(-c2ccccc2)c2cc(Br)ccc2[nH]c1=O | 1.8 | -0.2
16 | Cc1[nH]nc2c1C(c1cc([N+](=O)[O-])ccc1OCc1ccc(Br)cc1)C(C#N)=C(N)O2 (centres undefined) | 0.33 | .
17 | CCCCCn1c(=O)c2ccccc2n2c(CN3c4cccc5cccc(c45)S3(=O)=O)nnc12 | . | -0.55
18 | CCOC(=O)c1c(C)n(C)c2ccc(O)c(S(=O)(=O)c3ccc(C)cc3)c12 | 34 | 0.1
19 | CC(C)(C)c1ccc(S(=O)(=O)N2CCC(NC(=O)c3ccco3)CC2)cc1 | . | 0.55
20 | S=C1NCCN1CCOc1ccccc1 | 0.24 | -0.5
21 | O=c1c(C=Nc2ccccc2)c(Nc2ccccc2)[nH]n1-c1ccccc1 | -2.2 | 0.3
22 | Cc1cc(=O)oc2cc(OCC(=O)c3ccc4c(c3)OCO4)ccc12 | . | 1.2
23 | O=C(COc1ccc(Cl)cc1)Oc1cc(=O)[nH]c2ccccc12 | . | -0.15
24 | O=C(CSc1nc2ccccc2nc1-c1ccccc1)NCCN1CCOCC1 | . | 1.6
25 | CCOC(=O)C(NC(=O)c1ccc(OC)cc1)(Nc1nc2ccccc2nc1C(F)(F)F)C(F)(F)F (centres undefined) | -0.26 | .
26 | COc1ccc(NC(=O)c2cc3c(s2)-c2ccccc2SC3)cc1 | -0.11 | 1.4
27 | COc1ccccc1-n1c(=O)c2c3c(sc2n2c(SCC(=O)c4ccccc4)nnc12)CCC3 | 0.045 | -0.35
28 | CCOC(=O)/C(C#N)=C/c1ccccc1 | -0.28 | 0.05
29 | CCCCCCC(C)(SCC(=O)O)SCC(=O)O | -0.13 | .
30 | COc1ccccc1[C@@H]1[C@@H](C(=O)c2ccccc2)N2c3ccccc3C=C[C@@H]2C1(C#N)C#N | 0.74 | .
31 | CNC(=O)N(C1=NCCS1)c1ccccc1 | . | -0.5
32 | O=c1cc(-c2cccs2)oc2ccc(Br)cc12 | 1.9 | 1.6
33 | CN1CCN(/C=C2\C(=O)N(c3ccc(Cl)cc3)C(=O)c3ccccc32)CC1 | . | 1.9
34 | CCC(=O)Nc1ncc2c(n1)CC(C)(C)CC2=O | 0.47 | 0.1
35 | O=C1CSC(=Nc2ccc(Cl)cc2)N1C(=O)c1ccccc1Cl | -1.3 | .
36 | C/C(=N\O)c1ccc(Cl)c(Cl)c1 | 0.21 | .
37 | COC(=O)c1ccc(NC(=O)c2cc3ccccc3o2)cc1 | 0.74 | 0.05
38 | OCCN1CCN(CC#CCn2c3ccccc3c3ccccc32)CC1 | -0.35 | -1.2
39 | COc1cc(-c2nnc(-c3ccc(N4CCOCC4)cc3)o2)cc(OC)c1OC | . | 0.2
40 | COc1cc(Br)c(CCNC(=O)c2ccco2)cc1OC | 0.35 | 0.2
41 | COc1cc(Br)c(CN2CCCC(COC(=O)NNC(=O)c3ccccc3C)C2)cc1OC (centres undefined) | -0.45 | .
42 | O=C(O)CC(C(=O)O)n1c(O)c(/C=C2/C=Nc3ccccc32)sc1=S (centres undefined) | 1.1 | -0.45
43 | CCCCCOc1ccc(C(=O)CCC(=O)O)cc1 | . | -0.65
44 | COC(=O)c1c(C)oc(C)c1S(=O)(=O)NCc1cccs1 | -0.3 | -0.5
45 | O=C(NC1CCN(Cc2ccc3ccccc3c2)CC1)c1ccccc1 | -0.68 | -0.4
46 | O=c1oc2ccccc2c2nccnc12 | -0.015 | 0.7
47 | COc1ccc(/C=C/c2nc3ccccc3c(=O)n2-c2ccccc2)cc1 | 2.6 | .
48 | Cc1nn(CCC#N)c2c1P(=S)(N1CCCCC1)OC(c1ccccc1)=N2 (centres undefined) | . | 0.55
49 | CCOc1ccc(NC(=O)C2COc3ccccc3O2)cc1 (centres undefined) | -0.16 | .
50 | O=C(O)CCCc1nc(-c2ccccc2)no1 | . | -0.4
51 | CC(CCc1ccccc1)NC(=O)COc1ccc(-c2nnco2)cc1 (centres undefined) | . | -0.75
52 | CC(C)(C)OC(=O)N1CCC(CNC(=O)c2ccc(F)cc2F)CC1 | -0.19 | -1.1
53 | CC(C)(C)NS(=O)(=O)c1ccc2[nH]c3c(c2c1)CCCCC3 | 1.6 | -0.2
54 | CCN(C(=O)COc1ncnc2sc(-c3ccccc3)cc12)C1CCS(=O)(=O)C1 (centres undefined) | . | -0.75
55 | O=C(Cc1ccc(-c2ccccc2)cc1)NN1CCOCC1 | 0.18 | -0.5
56 | Cn1c(=O)oc2cc(S(=O)(=O)N3CCC(C(=O)O)CC3)ccc21 | -0.58 | 0.4
57 | CN1CCN(Nc2oc(-c3ccc(F)cc3)nc2C#N)CC1 | . | -0.65
58 | Cc1c(C)c(C)c(C(=O)c2ccccc2C(=O)N2CCOCC2)c(C)c1C | -0.98 | -0.6
59 | O=C(Nc1ccc(-c2ccc3nncn3n2)cc1)C1CCCC1 | . | -1.2
60 | CCCc1c(O)nc(SCC(=O)N(CC)CC)[nH]c1=O | . | -0.05

Whole records, looked up by structure. Order of screens: CapD inh | AID504770
`O=C(Nc1ccc(-c2ccc3nncn3n2)cc1)C1CCCC1` is listed as . | -1.2
`CC(C)(C)OC(=O)N1CCC(CNC(=O)c2ccc(F)cc2F)CC1` is listed as -0.19 | -1.1
`CN1CCN(Nc2oc(-c3ccc(F)cc3)nc2C#N)CC1` is listed as . | -0.65
`CC(CCc1ccccc1)NC(=O)COc1ccc(-c2nnco2)cc1` (centres undefined) is listed as . | -0.75
`Cc1nn(CCC#N)c2c1P(=S)(N1CCCCC1)OC(c1ccccc1)=N2` (centres undefined) is listed as . | 0.55

(further entries)
cpd | structure | CapD inh | AID504770
61 | CCNc1c(NC(=O)c2cccs2)c(=O)oc2ccccc12 | -1 | 3
62 | Nc1nccc(-c2cccc(C(F)(F)F)c2)n1 | 4.7 | 0.6
63 | CN1/C(=C\C=C2C(=O)CC(C)(C)CC2=O)C(C)(C)c2ccccc21 | -1.8 | -0.95
64 | C(=C\c1ccccc1)/CNCc1ccco1 | . | -0.4
65 | Cc1nn(-c2ccccc2)c2c1C(c1ccccc1)N1C=C(S(=O)(=O)N3CCCCC3)C=CC1=N2 (centres undefined) | . | -0.35
66 | CC1=C(C(=O)Nc2ccccc2)C2(CCCCC2)C(C#N)=C(S)N1 | . | -0.2
67 | Cc1ccc2c(N)c(C(=O)c3ccc(C(=O)c4sc5nc(C)ccc5c4N)cc3)sc2n1 | 0.29 | .
68 | CCC(C)(C)NS(=O)(=O)c1cc(-c2onc(C)c2C)ccc1C | 0.35 | -0.7
69 | CCCCc1ccc(C(=O)On2c(-c3ccc(OC)c(OC)c3)nc3ccccc3c2=O)cc1 | -0.23 | .
70 | O=C(CSc1ccnc(=O)[nH]1)NCc1ccccc1 | . | 2.4
71 | C=CCNC(=O)c1cnn(C)c1-n1cccc1 | 1 | -0.8
72 | Cc1c(NC(=O)OCCOc2nc(N(C)C)nc(N(C)C)n2)sc(=S)n1C | -0.18 | .
73 | CN(C)CCNC(=O)c1ccc2c(c1)N(Cc1ccc(F)cc1)C(=O)c1ccccc1S2(=O)=O | 2.1 | -0.3
74 | COC(=O)C1C(=O)N(C)C2(C)CC1c1cc(OC)ccc1O2 (centres undefined) | -0.15 | .
75 | C=CCOc1ccc(CN2CCCCC2COC(=O)N2CCCC2C(=O)OCc2ccccc2)cc1 (centres undefined) | 0.3 | .
76 | CCCN(CCC)C(=O)c1cc2c(=O)oc3ccccc3c2s1 | 0.64 | 0.55
77 | CC(=O)c1c(C)oc2ccc(N(C(C)=O)S(=O)(=O)c3ccc(Br)cc3)cc12 | -1 | .
78 | C=CCn1c(SCc2nc3ccccc3[nH]2)nc2sc(CC)cc2c1=O | -0.36 | .
79 | Nc1ccccc1SCC(=O)N1CCc2cc(F)ccc21 | -0.22 | .
80 | CCn1c(=O)cc(N2CCC(C)CC2)[nH]c1=O | -0.73 | 2.3
81 | CN1CCN(Cc2c(O)ccc3c(=O)c(-c4ccccc4)coc23)CC1 | 27 | -0.6
82 | CSc1nc2c(c(=O)[nH]1)C(c1ccc(C(C)C)cc1)C1=C(CC(C)(C)CC1=O)N2 (centres undefined) | 9.2 | 0.4
83 | COCCNC(=O)Cc1nc2ccccc2n1CC(=O)Nc1ccc(S(=O)(=O)N2CCCC2)cc1 | . | 0.8
84 | CCOC(=O)c1[nH]c(C)c(C(C)=O)c1-c1ccccc1 | -0.41 | .
85 | O=C(COc1c(F)c(F)cc(F)c1F)c1ccc2c(c1)OCCO2 | . | -0.8
86 | COc1ccccc1NC(=O)C1CC(=O)N(Cc2ccc3c(c2)OCO3)C(=Nc2ccc(F)cc2)S1 (centres undefined) | 0.23 | .
87 | N#CCc1c(Cl)sc2ccc(Cl)cc12 | 0.29 | -0.9
88 | O=C(CCn1c(=S)oc2ccccc21)Nc1cccc(-c2nc3ncccc3o2)c1 | 1.5 | .
89 | O=C(CSCc1cccc2ccccc12)NNC(=S)NC1CCCCC1 | -0.15 | .
90 | O=C(c1c(F)cccc1F)N1CCCC(c2nc(-c3cccs3)no2)C1 (centres undefined) | . | -0.35
91 | CCc1n[nH]c(=O)c2cc3sccc3n12 | 0.1 | -0.2
92 | CCOC(=O)c1ccc(NC(=O)Cn2c(C(=O)OC)cc3sccc32)cc1 | -0.025 | -0.15
93 | CC(C)(C)C(=O)CN1C(=O)C2(OCCO2)c2ccccc21 | -0.52 | .
94 | Cc1c(C#N)oc2ccccc12 | . | 0.85
95 | CCOc1cc(/C=C2\OC(=O)c3c2cc(C)[nH]c3=S)ccc1O | -0.095 | 0.7
96 | COc1c(I)cc(I)cc1/C=C1/SC(=S)N(CC(=O)O)C1=O | -0.13 | .
97 | CCOc1ccc(Cc2nnc(SCC(=O)c3ccc(Cl)cc3)o2)cc1 | 0.23 | -0.2
98 | COC(=O)C(/C=N/OCc1ccc(Cl)c(Cl)c1)NC(=O)c1ccccc1 (centres undefined) | -0.51 | .
99 | CN(C)/C=C(\C#N)C(=O)C1CC1 | 0.99 | -1.1
100 | Cc1cc(N2CCCCC2)nc(N)n1 | -0.66 | .
101 | O=C1CN(C(=O)Cc2ccc(S(=O)(=O)N3CCCCC3)cc2)c2ccccc2N1 | . | 2.2
102 | C=CCC1(C2CCCC2)C(=O)NC(=O)NC1=O | 0.095 | 0.8
103 | Cc1cc2nc(-c3ccc4ccccc4c3)cc(C(F)(F)F)n2n1 | 6.7 | .
104 | Cc1cccc(NC(=O)CC23CC4CC(CC(C4)C2)C3)n1 | . | -0.25
105 | Cc1cc(=O)oc2c1ccc1oc(C(=O)c3ccccc3)c(-c3ccccc3)c12 | -0.88 | .
106 | CN(C)c1ccc(CN2CCc3c([nH]c4ccccc34)C2)cc1 | 0.31 | -0.3
107 | CN(C1CCCCC1)S(=O)(=O)c1ccc(NC(=O)C2COc3ccccc3O2)cc1 (centres undefined) | . | 0.2
108 | Cc1ccc(C(=O)Nc2nc3ccc(S(C)(=O)=O)cc3s2)cc1 | i | 1.5
109 | O=C(CP(=O)(O)CC(=O)c1ccccc1)c1ccccc1 | . | 0.95
110 | O=C1CCSc2ccc(Cl)cc2N1Cc1c(Cl)cccc1Cl | 0.055 | .
111 | CCOC(=O)CN(C)Cc1ccc(Cl)c(Cl)c1 | -0.55 | 3.4
112 | Cc1ccc(C)c(N2C(=O)CS/C2=C(/C#N)S(=O)(=O)c2ccccc2)c1 | -0.54 | 0.1
113 | N/C(=N\OC(=O)c1ccsc1)c1ccc(Br)cc1 | -0.14 | -0.75
114 | NNC(=O)c1ccc(-c2ccccc2F)cc1 | 0.42 | -0.75
115 | Fc1cccc(F)c1-c1noc(-c2cc(-c3ccncc3)nc3ccccc23)n1 | 0.025 | .
116 | CC1(C)Oc2ccc(C(=O)N3CCOCC3)cc2NC1=O | . | -0.9
117 | N#Cc1ccc(COC(=O)c2cccnc2N2CCOCC2)cc1 | . | 0.75
118 | CCC12CN3CCN(CC(C3)/C1=N/NC(=O)c1ccncc1)C2 | 0.66 | -0.35
119 | O=C1CCCN1CN(C(=O)c1ccccc1)c1ccccc1 | 0.4 | -0.65
120 | O=C1CCc2cc(Cl)ccc21 | 0.96 | -0.4
121 | Cc1cc(C)c(S(=O)(=O)c2cccc(C(F)(F)F)c2)c(=O)[nH]1 | 12 | -0.75
122 | CCCn1c(Cc2ccc(OC)c(OC)c2)nc2ccccc21 | . | -0.45
123 | NC(=O)CSc1nnc(COc2cccc3ccccc23)o1 | . | -0.3

Assay outcomes (PubChem)
